LASV entry inh = qHTS for Inhibitors of binding or entry into cells for Lassa Virus | Lassa virus pseudotype entry inhibition, cell reporter; control for the full effect not named in the record | Potency, µM (series often up to 37.9 µM), for inactives: at the highest dose activity change, negative = inhibition, actives largely listed as inhibitors | actives 1.2% (n = 300,000); active means well fitted inhibition curve with a large enough effect; inconclusive means small, poorly fitted or top-dose-only effect, or effect the other way; inactive means flat fitted curve, though single readings scatter; tested in HEK293 cells; also: % is scaled to controls: 0 for no effect and ±100 for the full control effect; nearly all actives have a fitted effect of over 50% in size; luciferase read-out
Cruzain inh noDet = qHTS Assay for Promiscuous and Specific Inhibitors of Cruzain (without detergent) | Cruzipain (Trypanosoma cruzi), P25779 | purified cruzain, Z-FR-AMC fluorescence, no detergent | Potency, µM, without a hit: max response, negative = inhibition, actives largely listed as inhibitors | actives 2.3% (n = 200,000) | AID 1476, 2009; active = well fitted curve in the direction sought with a large enough effect; inconclusive = small, poorly fitted or top-dose-only effect, or another doubt; inactive = no such curve, though single readings can be large; an effect the other way counts as inactive or inconclusive;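 also: plate controls were enzyme without inhibitor for no effect and buffer without enzyme for full effect; nearly all actives have a fitted effect of over 40% in size; top concentration of the series not given in the record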
Target sequence (P25779 123-467 limits assumed): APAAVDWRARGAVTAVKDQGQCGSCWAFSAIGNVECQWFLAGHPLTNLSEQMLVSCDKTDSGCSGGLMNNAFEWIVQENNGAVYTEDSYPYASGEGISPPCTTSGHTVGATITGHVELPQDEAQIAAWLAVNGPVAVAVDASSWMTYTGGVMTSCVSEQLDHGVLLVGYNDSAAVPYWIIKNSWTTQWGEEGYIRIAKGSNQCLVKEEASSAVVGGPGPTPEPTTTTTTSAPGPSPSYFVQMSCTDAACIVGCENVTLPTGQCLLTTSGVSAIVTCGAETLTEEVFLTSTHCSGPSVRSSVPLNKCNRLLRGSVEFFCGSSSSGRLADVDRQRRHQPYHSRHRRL
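Purified cruzain at 1.5 nM, pre-incubated 15 min with compound at room temperature in 100 mM sodium acetate pH 5.5, 5 mM DTT, 0.00005% Triton X-100. Reaction started with 2 uM Z-FR-AMC; AMC fluorescence increase over 60 s gives rate.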
Cruzain Triton = qHTS Assay for Promiscuous and Specific Inhibitors of Cruzain (with detergent); purified cruzain, Z-FR-AMC fluorescence, 0.01% Triton; Potency, µM, inactives show max response, negative = inhibition, hits mostly inhibitors; actives 0.43% (n = 200,000); active = well fitted curve in the direction sought with a large enough effect; inconclusive = small, poorly fitted or top-dose-only effect, or another doubt; inactive = no such curve, though single readings can be large; an effect the other way counts as inactive or inconclusive;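 also: plate controls were neutral wells for no effect and buffer without enzyme for full effect; nearly all actives have a fitted effect of over 40% in size; top concentration of the series not given in the record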
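Detergent-containing run (0.01% Triton X-100) in acetate buffer pH 5.5 with 5 mM DTT: enzyme at 1.5 nM final, 15 min compound preincubation at room temperature, then 2 uM Z-FR-AMC substrate. Activity taken as 60 s fluorescence increase at 360/450 nm.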
SARS PLP yeast = qHTS of Yeast-based Assay for SARS-CoV PLP; S. cerevisiae expressing SARS-CoV PLpro, growth rescue; control for the full effect not named in the record; Potency, µM (series often up to 32.9 µM), for inactives: at the top dose activity, positive = growth rescue; actives 0.19% (n = 330,000); AID 485353, 2010; also: 0% is about no effect; nearly all actives have a fitted effect of over 55% in size; growth read by luminescence after 48 h
StopGo reporter = High Throughput Screening for Foot and Mouth Disease Virus Antivirals; human cells with a luciferase reporter of 2A StopGo recoding; control for the full effect not named in the record; Potency, µM (titrated, usually from 57.9 µM), inactives show at the top dose signal change, negative = less light; actives 1.2% (n = 410,000); AID 1159524, 2015; active = well fitted falling curve with a large enough effect; inconclusive = small, poorly fitted or top-dose-only effect; inactive = no such curve, though single readings can be large or run the other way; tested in HEK293T cells; also: % is scaled to controls: 0 for no effect and ±100 for the full control effect; nearly all actives have a fitted effect of over 45% in size; luciferase light after 4 h
MARV entry inh = qHTS for inhibitors of binding or entry into cells for Marburg Virus | Marburg virus pseudotyped entry inhibition, cell reporter; control for the full effect not named in the record; about a third of the inactives were read at about 46 µM | AID 540276, 2011 | Potency, µM (series often up to 37.8 µM), for inactives: at the top dose activity change, negative = inhibition, most hits filed as inhibitors | actives 1.8% (n = 300,000); active = well fitted inhibition curve with a large enough effect; inconclusive = small, poorly fitted or top-dose-only effect, or effect the other way; inactive = flat fitted curve, though single readings scatter; tested in HEK293 cells; about a fifth of its hits are not listed in these tables; also: % is scaled to controls: 0 for no effect and ±100 for the full control effect; luciferase read-out
NS1 function inh = qHTS Assay for Inhibitors of Influenza NS1 Protein Function; S. cerevisiae slowed by influenza A NS1, growth recovery by OD600; Potency, µM (top dose mostly 46.1 µM), without a hit: at the highest dose activity, positive = more growth; actives 0.4% (n = 270,000); AID 2326, 2010; also: actives are rising curves; nearly all actives have a fitted effect of over 50% in size
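Recovery from NS1-induced slow growth read by OD600 in budding yeast switched to galactose assay medium (pH 6.0, -URA) at 1:100 dilution. Compound 23 nl per well; the matching strain lacking NS1 serves as control.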
RE007 growth inh = qHTS Assay for Inhibitors of the HIV-1 protein Vpr. AID 651644, 2012. S. pombe RE007 Vpr strain, BacTiter-Glo ATP luminescence, 24 h; control for the full effect not named in the record. Potency, µM (highest dose often 92.2 µM), without a hit: at the highest dose activity change, negative = less growth. actives 0.21% (n = 360,000); active = well fitted falling curve with a large enough effect; inconclusive = small, poorly fitted or top-dose-only effect; inactive = no such curve, though single readings can be large or run the other way;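 also: % is scaled to controls: 0 for no effect and ±100 for the full control effect; nearly all actives have a fitted effect of over 50% in size; the assay follows cell death caused by Vpr and the record does not say whether a fall means rescue or toxicity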
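Fission yeast strain RE007, carrying one chromosomally integrated HIV-1 vpr copy, was seeded at OD 0.01 in PMG+AL medium with 23 nL pinned compound. After 24 h at 30 °C and 99% humidity, viability was read by BacTiter-Glo luminescence.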
The depositor's hits bear a star; ? = inconclusive; · = no result given; & = joins results of further samples; [ ] = remark or other dose. Unless noted, calls follow the shape of the dose curve; as a rule, active means well fitted rising curve with a large enough effect; inconclusive means small, poorly fitted or top-dose-only effect; inactive means no such curve, though single readings can be large or run the other way. Potency is read from the fitted curve at half-maximal effect.

SMILES	LASV entry inh	Cruzain inh noDet	Cruzain Triton	SARS PLP yeast	StopGo reporter	MARV entry inh	NS1 function inh	RE007 growth inh
COc1ccccc1-c1cc(C(F)(F)F)n2ncc(C(=O)N3CCc4ccccc4C3)c2n1	-29%	·	·	0%	-29%	-29%	6%	22%
CCOc1ccccc1C(=O)N1c2ccccc2Sc2ccccc21	?	-24%	-5.8%	-6%	-14%	?	-67%	3%
COc1ccc(CNC(=O)Cn2c(=O)n3nc(-c4ccc(OC)cc4)nc3c3ccccc32)cc1	-5%[46.1 µM]	-7%	-0.2%	·	-8%	·	·	·
Cc1cccc(C(=O)Nc2c(-c3ccccc3)nc3cc(C)ccn23)c1	-6%[46.1 µM]	0%	-4.9%	·	9%	20%[46.1 µM]	·	·
CC(C)=CCN1CCN(Cc2ccc(Oc3ncccn3)cc2)CC1CCO (stereo not given)	3%[46.1 µM]	·	·	0%	5%	17%[46.1 µM]	-2%	2%
COc1cccc(-c2nn3c(-c4cccc(C)c4)nnc3s2)c1	-3%	?	-10%	2%	51%[activator]	-5%	-81%	9%
Cc1c(Cl)cccc1NC(=O)CNc1ccccc1F	16%	3%	-4.9%	?	20%	-19%	-18%	10%
Cc1ccc2c(CC(=O)NCc3ccco3)coc2c1C	-17%	-6%	-0.4%	-18%	16%	?	-15%	-15%
CCc1ccc(OC(=O)CN2C(=O)c3ccccc3C2=O)cc1	5%	·	·	-6%	3%	14%&14%	-39%	-7%
COC(=O)\C(C(C)=O)=C(/C=C/C=C/N(C)C)N(C)C	-2%	-3%	-13%	-6%	-11%	5%	3%	21%
Cc1ccc(Nc2nc(CSc3nnc(-c4cccs4)o3)cs2)cc1	10%	?	-8.0%	-13%	0%	0%&0%	-4%	-5%
O=C(NCCCN1CCCC1=O)c1ccccc1NS(=O)(=O)c1ccc(Br)cc1	21%	19%	6.1%	0%	23%	28%	-4%	-8%
Cc1cc(-c2ccccc2)c(C#N)c(N)n1	3%	0%	12%	·	1%	?	-7%	7%
N/C(=N\c1nc2ccccc2o1)NC(=O)c1ccccc1Br	-14%[46.1 µM]	·	·	0%	-15%	?	1%	5%
CC(=O)c1cccc(NC(=O)Nc2cnn(Cc3ccc(F)cc3)c2)c1	·	2%	-1.5%	-1%	·	0%	10%	·
COc1ccc(OC)c(/C=N\Nc2nccs2)c1	26%[46.1 µM]	·	·	·	3%	6%[46.1 µM]	·	-10%
COc1ccc(/C=C/C(=O)OCC(=O)NC2CCCC(C)C2C)cc1S(=O)(=O)N1CCOCC1 (stereo not given)	0%	·	·	1%	-6%	16%	·	-7%
COc1cccc(-c2ccnc3[nH]n(-c4ccccc4)c(=O)c23)c1	-4%[46.1 µM]	·	·	-6%	36%&0%[activator]	9%[46.1 µM]	1%	-8%
CCN(CC)S(=O)(=O)c1cccc(-c2cn3cccnc3n2)c1	20%	·	·	0%	-15%	6%[46.1 µM]	2%	-7%
Cn1c(=O)c2c(SCC(=O)NCc3ccco3)nc(CC(C)(C)C)nc2n(C)c1=O	·	-10%	-4.4%	2%	-14%	0%	-59%	-3%
O=C(CCC(=O)N1CCOc2ccccc21)NCCCN1CCCCC1	·	·	·	-1%	-16%	·	-15%	3%
Fc1ccc(N2CCN(c3cnc4ccccc4n3)CC2)cc1	·	·	·	-2%	10%	·	-9%	5%
COc1ccccc1NC(=O)Cc1noc(CSc2n[nH]c(N)n2)n1	-24%	·	·	-7%	11%	19%	·	1%
COc1ccc(CNC(=O)c2cc(-c3ccc(OC)c(OC)c3)on2)cc1	10%	18%	3.8%	-3%	-19%	13%	10%	4%
Cc1cccc(NC(=S)N2CCC(N(C)CC3CCCO3)CC2)c1 (stereo not given)	5%	·	·	1%	-11%	4%[46.1 µM]	·	-12%
O=S(=O)(Nc1ccncc1)c1cc(Cl)c(Cl)cc1Cl	·	·	·	4%	23%	·	13%	-7%
CCOC(=O)c1c(NC(=O)COC(=O)Cn2cnc3c2c(=O)n(C)c(=O)n3C)sc(C)c1CC	-27%	·	·	2%	-7%	3%	·	23%
Cc1ccc(NC(=O)CNC(=O)c2ccc3c(c2)OCO3)nc1	11%[46.1 µM]	·	·	0%	6%	1%[46.1 µM]	8%	8%
CCOC(=O)c1scc(-c2ccccc2)c1S(=O)(=O)Nc1ccccc1F	-13%[46.1 µM]	3%	-0.6%	·	40%[activator]	·	·	·
CCC1CCCCN1CCCNC(=O)c1ccc2c(c1)c(C)c(C)n2C (stereo not given)	?	·	·	13%	-11%	?	6%	-12%
COc1ccc(OC)c(C(c2nnnn2Cc2ccccc2)N2CCN(C)CC2)c1 (stereo not given)	-15%	-4%	2.1%	5%	-12%	?	-4%	-12%
CCCC(=O)Nc1ccc2oc(-c3cccnc3)nc2c1	2%	7%	1.2%	-6%	46%[activator]	0%	-7%	5%
CCOC(=O)CC(NC(=O)c1cc2cc(OC)ccc2oc1=O)c1ccc(OC)cc1 (stereo not given)	28%[46.1 µM]	13%	0.1%	·	5%	5%[46.1 µM]	·	·
Cn1c(SCC(=O)NCc2ccco2)nnc1-c1cccs1	5%	-17%	-0.3%	-6%	17%	2%	8%	13%
COC(=O)c1ccc(/C=N/n2cnnc2)cc1	15%	-7%	0.1%	7%	·	13%	3%	-13%
CCOP(=O)(Oc1ccccc1)c1c([N+](=O)[O-])cc(C(F)(F)F)cc1[N+](=O)[O-] (stereo not given)	10%[46.1 µM]	·	·	1%	?	5%[46.1 µM]	-1%	-4%
Cc1cccc(C(=O)OCC(=O)N2CCN(C(=O)c3ccco3)CC2)c1O	?	·	·	-3%	1%	3%[46.1 µM]	·	2%
O=C(c1ccco1)N1CCC(c2ccccc2)C1 (stereo not given)	0%	-2%	4.3%	3%	·	10%	-16%	4%
COc1ccc(C(C(=O)NC2CCCCC2)N(C(=O)Cc2c[nH]c3ccccc23)c2ccccc2C)cc1OC (stereo not given)	?	17%	-6.1%	0%	-14%	?	29%	10%
CC1CCCCC1NC(=O)CNC(=O)c1cccs1 (stereo not given)	?	·	·	·	24%	7%	·	9%
Cc1ccccc1NS(=O)(=O)c1ccc(C(=O)NCC(c2ccco2)N2CCCCC2)cc1 (stereo not given)	-26%	·	·	4%	?	?	·	-6%
COc1ccc(-c2cc(C(=O)Nc3c(C(=O)c4ccc(Cl)cc4)oc4ccccc34)no2)cc1	-1%[46.1 µM]	0%	-1.6%	·	-1%	-1%[46.1 µM]	·	·
Cc1[nH]c2c(Br)cccc2c1[C@H]1[C@@H](CC#N)C1(C)C	-20%	-8%	-7.1%	-32%	?	-19%[46.1 µM]	-40%	-21%
CC(C)c1ccc(NC2CCCN(C(=O)c3ccco3)C2)cc1 (stereo not given)	·	·	·	-4%	-2%	·	-18%	2%
Cc1ccnc(NS(=O)(=O)c2ccc(NC(=O)C(C)(C)Oc3ccc(Cl)cc3)cc2)n1	1%[46.1 µM]	?	-6.7%	·	51%[activator]	-17%[46.1 µM]	·	·
COc1ccc(S(=O)(=O)N2CCCCC2)cc1NC(=O)c1c(F)cccc1Cl	?	·	·	7%	18%	-20%	·	42%
COc1ccccc1CNc1ccc(-c2nc(-c3ccncc3)no2)cc1[N+](=O)[O-]	-6%[46.1 µM]	-8%	-2.7%	·	0%	0%[46.1 µM]	·	·
CCOc1ccc(N(CC)S(=O)(=O)N2CCCC(C(=O)Nc3cc(Cl)ccc3C)C2)cc1 (stereo not given)	-27%[46.1 µM]	0%	-5.9%	·	?	·	·	·
COc1cc(/C=N/n2c(-c3n[nH]c4c3CCC4)n[nH]c2=S)cc(OC)c1O	4%[46.1 µM]	·	·	-1%	1%	1%[46.1 µM]	-5%	-1%
Cc1cc(NS(=O)(=O)c2ccc(NC(=O)/C=C/c3ccc(Br)cc3)cc2)no1	13%	·	·	?	-18%	9%	0%	-8%
COc1ccc(-n2c(O)c(C(C)=NCCN3CCNCC3)c(=O)[nH]c2=O)cc1	-2%	-6%	2.5%	-2%	7%	15%	6%	8%
COc1ccc(N(CC(=O)Nc2cccc(Cl)c2C)S(=O)(=O)c2c(C)nn(C)c2C)cc1	-12%[46.1 µM]	?	-6.4%	·	-18%	-13%[46.1 µM]	·	·
COc1ccc(S(=O)(=O)Nc2nccs2)cc1OC	6%[46.1 µM]	·	·	-1%	15%	2%[46.1 µM]	0%	-5%
COc1ccc(Cl)cc1NC(=O)CSc1nc(=O)[nH]c2c1CCC2	0%[46.1 µM]	3%	-1.6%	·	-18%	·	·	·
CC(=O)c1ccc(OCCCC(=O)n2nnc3ccccc32)cc1	-13%	3%	1.3%	8%	0%	4%[46.1 µM]	-16%	35%
CN1CCN(C(=O)CNC(=O)c2cccs2)CC1	22%	·	·	2%	16%	2%	·	30%
COc1cc2c(-c3ccccc3Cl)nc3c(c(C)nn3-c3ccccc3)c2cc1OC	-23%[46.1 µM]	1%	-3.0%	·	-25%	·	·	·
CCOC(=O)c1[nH]c2ccc(OCC)cc2c1CCCN1C(=O)c2ccccc2C1=O	2%	28%	-7.1%	15%	-17%	-4%	6%	1%
Cc1ccc(NC(=O)c2c(C)oc3ccc(O)c(CN4CCCCC4)c23)cc1	?	-6%	-4.1%	·	-15%	?	·	·
NC(=O)C1(N2CCCCC2)CCN(Cc2nc3ccccc3c(=O)[nH]2)CC1	-11%	0%	0.4%	1%	·	7%	0%	0%
COc1ccc(OC)c(-c2cn(S(=O)(=O)c3ccccc3)nc2N)c1	2%	-1%	-14%	6%	25%	8%	-6%	14%
